RE007 growth inh: qHTS Assay for Inhibitors of the HIV-1 protein Vpr; S. pombe RE007 Vpr strain, BacTiter-Glo ATP luminescence, 24 h; control for the full effect not named in the record; Potency, µM (top dose mostly 92.2 µM), inactives show at the top dose activity change, negative = less growth; 0.21% of 360,000 active; AID 651644, 2012; active = well fitted falling curve with a large enough effect; inconclusive = small, poorly fitted or top-dose-only effect; inactive = no such curve, though single readings can be large or run the other way;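 note: % is set by controls: 0 for no effect and ±100 for the full control effect; nearly all actives have a fitted effect of over 50% in size; the assay follows cell death caused by Vpr and the record does not say whether a fall means rescue or toxicity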
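Fission yeast RE007 carrying one integrated HIV-1 vpr copy, seeded at OD 0.01 in PMG+AL medium with 23 nL pinned compound. Grown 24 h at 30 degrees; viability read by BacTiter-Glo luminescence after 5 min.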
Cruzain inh noDet: qHTS Assay for Promiscuous and Specific Inhibitors of Cruzain (without detergent). AID 1476, 2009. purified cruzain, Z-FR-AMC fluorescence, no detergent. Potency, µM, for the others: max response, negative = inhibition, most hits filed as inhibitors. 2.3% of 200,000 active; active = well fitted curve in the direction sought with a large enough effect; inconclusive = small, poorly fitted or top-dose-only effect, or another doubt; inactive = no such curve, though single readings can be large; an effect the other way counts as inactive or inconclusive;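 note: plate controls were enzyme without inhibitor for no effect and buffer without enzyme for full effect; nearly all actives have a fitted effect of over 40% in size; top concentration of the series not given in the record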
Target sequence (P25779 123-467 limits assumed): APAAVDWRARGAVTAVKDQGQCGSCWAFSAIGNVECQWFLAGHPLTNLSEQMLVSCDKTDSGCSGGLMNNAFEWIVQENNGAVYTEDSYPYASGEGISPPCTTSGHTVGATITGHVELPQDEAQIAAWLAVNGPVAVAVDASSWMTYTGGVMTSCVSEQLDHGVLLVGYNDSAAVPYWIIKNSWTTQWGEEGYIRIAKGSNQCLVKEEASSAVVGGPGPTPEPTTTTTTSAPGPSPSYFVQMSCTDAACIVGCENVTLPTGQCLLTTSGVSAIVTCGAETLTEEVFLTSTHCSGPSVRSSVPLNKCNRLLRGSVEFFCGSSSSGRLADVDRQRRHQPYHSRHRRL
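Purified cruzain at 1.5 nM, pre-incubated 15 min with compound at room temperature in 100 mM sodium acetate pH 5.5, 5 mM DTT, 0.00005% Triton X-100. Reaction started with 2 uM Z-FR-AMC; AMC fluorescence increase over 60 s gives rate.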
Cruzain inh Det: qHTS Assay for Promiscuous and Specific Inhibitors of Cruzain (with detergent). 0.43% of 200,000 active. Potency, µM, inactives show max response, negative = inhibition, most hits filed as inhibitors. Cruzipain (Trypanosoma cruzi), P25779. purified cruzain, Z-FR-AMC fluorescence, 0.01% Triton; active = well fitted curve in the direction sought with a large enough effect; inconclusive = small, poorly fitted or top-dose-only effect, or another doubt; inactive = no such curve, though single readings can be large; an effect the other way counts as inactive or inconclusive;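 note: plate controls were neutral wells for no effect and buffer without enzyme for full effect; nearly all actives have a fitted effect of over 40% in size; top concentration of the series not given in the record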
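In this qHTS format, compounds are incubated with 1.5 nM cruzain for 15 min at room temperature before 2 uM Z-FR-AMC is added. Release of AMC is followed at 360/450 nm, and progress is taken as the 60 s fluorescence difference.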
NS1 function inh: qHTS Assay for Inhibitors of Influenza NS1 Protein Function | S. cerevisiae slowed by influenza A NS1, growth recovery by OD600 | Potency, µM (highest dose often 46.1 µM), inactives show at the top dose activity, positive = more growth | 0.4% of 270,000 active; note: actives are rising curves; nearly all actives have a fitted effect of over 50% in size
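Read-out: OD600 growth recovery of NS1-expressing budding yeast. Cells grown overnight at 30C in -URA glucose medium, washed, resuspended and diluted 1:100 in 2% galactose assay medium, pH 6.0. Same strain lacking NS1 served as positive control.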
SARS PLpro yeast: qHTS of Yeast-based Assay for SARS-CoV PLP | S. cerevisiae expressing SARS-CoV PLpro, growth rescue; control for the full effect not named in the record | Potency, µM (highest dose often 32.9 µM), for inactives: at the highest dose activity, positive = growth rescue | 0.19% of 330,000 active | AID 485353, 2010; note: 0% is about no effect; nearly all actives have a fitted effect of over 55% in size; growth read by luminescence after 48 h
StopGo reporter: High Throughput Screening for Foot and Mouth Disease Virus Antivirals; human cells with a luciferase reporter of 2A StopGo recoding; control for the full effect not named in the record; Potency, µM (highest dose often 57.9 µM), for the others: top-dose signal change, negative = less light; 1.2% of 410,000 active; active = well fitted falling curve with a large enough effect; inconclusive = small, poorly fitted or top-dose-only effect; inactive = no such curve, though single readings can be large or run the other way; tested in HEK293T cells; note: % is set by controls: 0 for no effect and ±100 for the full control effect; nearly all actives have a fitted effect of over 45% in size; luciferase light after 4 h
Marburg entry inh: qHTS for inhibitors of binding or entry into cells for Marburg Virus; Potency, µM (titrated, usually from 37.8 µM), for inactives: top-dose activity change, negative = inhibition, actives largely listed as inhibitors; Marburg virus pseudotyped entry inhibition, cell reporter; control for the full effect not named in the record; about a third of the inactives were read at about 46 µM; 1.8% of 300,000 active; active = well fitted inhibition curve with a large enough effect; inconclusive = small, poorly fitted or top-dose-only effect, or effect the other way; inactive = flat fitted curve, though single readings scatter; tested in HEK293 cells; about a fifth of its hits are not listed in these tables; note: % is set by controls: 0 for no effect and ±100 for the full control effect; luciferase read-out
LASV entry inh: qHTS for Inhibitors of binding or entry into cells for Lassa Virus; Lassa virus pseudotype entry inhibition, cell reporter; control for the full effect not named in the record; Potency, µM (top dose mostly 37.9 µM), inactives show at the top dose activity change, negative = inhibition, usual class: inhibitors; 1.2% of 300,000 active; AID 540256, 2011; active means well fitted inhibition curve with a large enough effect; inconclusive means small, poorly fitted or top-dose-only effect, or effect the other way; inactive means flat fitted curve, though single readings scatter; tested in HEK293 cells; note: % is set by controls: 0 for no effect and ±100 for the full control effect; nearly all actives have a fitted effect of over 50% in size; luciferase read-out
* = called active by the depositor; & = joins results of further samples; [ ] = remark or other dose. Unless noted, calls come from the whole dose curve; as a rule, active means well fitted rising curve with a large enough effect; inconclusive means small, poorly fitted or top-dose-only effect; inactive means no such curve, though single readings can be large or run the other way. Potency is the fitted concentration of half-maximal effect.

Start of the listing, in advance, 2 compounds:
How did COc1ccc(C(=O)n2cnc3ccccc32)cc1 do in these assays?
RE007 growth inh: -5%; NS1 function inh: 2%; SARS PLpro yeast: 10%; StopGo reporter: 9%

What do the screens show for `COC(=O)c1ccc(/C=C(/NC(=O)c2ccccc2)C(=O)N2CCOCC2)cc1`?
RE007 growth inh: -2%; NS1 function inh: -12%; SARS PLpro yeast: 2%; StopGo reporter: 5%

The listing, from the start:
How did COc1ccc(C(=O)n2cnc3ccccc32)cc1 do in these assays?
RE007 growth inh: -5%; NS1 function inh: 2%; SARS PLpro yeast: 10%; StopGo reporter: 9%

What do the screens show for `COC(=O)c1ccc(/C=C(/NC(=O)c2ccccc2)C(=O)N2CCOCC2)cc1`?
RE007 growth inh: -2%; NS1 function inh: -12%; SARS PLpro yeast: 2%; StopGo reporter: 5%

Results for Cc1cccc2sc(NC(=O)C3CCN(C(=O)c4ccco4)CC3)nc12 ?
RE007 growth inh: -20%; NS1 function inh: 2%; SARS PLpro yeast: -3%; StopGo reporter: 2%; Marburg entry inh: inconclusive; LASV entry inh: 7.9µM*

Results for O=C(COC(=O)Cc1ccc(Cl)cc1Cl)Nc1ccccc1OC(F)F ?
RE007 growth inh: -8%; Cruzain inh noDet: -1%; Cruzain inh Det: -7.0%; NS1 function inh: -32%; SARS PLpro yeast: -31%; StopGo reporter: -2%; Marburg entry inh: 0%; LASV entry inh: -3%

Results for COc1cc(C2NC(=S)NC(c3ccccc3)=C2C(C)=O)cc(Cl)c1OCC(=O)O (centres undefined) ?
RE007 growth inh: 21%; Cruzain inh noDet: -9%; Cruzain inh Det: -6.5%; NS1 function inh: 17%; SARS PLpro yeast: -1%; StopGo reporter: 8%; Marburg entry inh: 1%; LASV entry inh: inconclusive

How did CCOc1ccccc1CNC(=O)c1ccc(-c2nc(CSc3ccc(C)cc3)c(C)o2)cc1 do in these assays?
Cruzain inh noDet: inconclusive; Cruzain inh Det: -7.9%; StopGo reporter: -13%; LASV entry inh: inconclusive

Results for N#Cc1cnn(-c2ncnc3sc4c(c23)CCCC4)c1N ?
RE007 growth inh: -4%; Cruzain inh noDet: 0%; Cruzain inh Det: -2.3%; NS1 function inh: 3%; SARS PLpro yeast: -6%; StopGo reporter: 3%; Marburg entry inh: -23%[46.1 µM]; LASV entry inh: -6%

Results for Cc1cccc(C(=O)N2CCC(Cc3ccccc3)CC2)c1[N+](=O)[O-] ?
RE007 growth inh: 30%; Cruzain inh noDet: 11%; Cruzain inh Det: -7.3%; NS1 function inh: -13%; SARS PLpro yeast: 11%; StopGo reporter: inconclusive; Marburg entry inh: inconclusive; LASV entry inh: -20%

Results for CC(OC(=O)CNC(=O)C12CC3CC(CC(C3)C1)C2)C(=O)Nc1ccc(S(N)(=O)=O)cc1 (centres undefined) ?
RE007 growth inh: 8%; NS1 function inh: -5%; SARS PLpro yeast: 0%; StopGo reporter: -7%; Marburg entry inh: 18%[46.1 µM]; LASV entry inh: 3%

How did Cc1ccc(C(=O)NNC(=O)c2cccc(S(=O)(=O)N3CCN(c4ccccc4)CC3)c2)cc1 do in these assays?
RE007 growth inh: -13%; Cruzain inh noDet: -5%; Cruzain inh Det: -2.0%; NS1 function inh: inconclusive; SARS PLpro yeast: 15%; StopGo reporter: -14%; Marburg entry inh: -13%; LASV entry inh: -20%

What do the screens show for `S=C(Nc1cccc(Cl)c1Cl)N1CCCC1`?
RE007 growth inh: -10%; NS1 function inh: 4%; SARS PLpro yeast: 7%; StopGo reporter: 5%; Marburg entry inh: 29%[46.1 µM]; LASV entry inh: -2%[46.1 µM]

How did COc1ccc2cc(-c3nc(Cl)c4c5c(sc4n3)CCCC5)c(=O)oc2c1 do in these assays?
Cruzain inh noDet: -1%; Cruzain inh Det: -2.6%; StopGo reporter: 19%; Marburg entry inh: 5%[46.1 µM]; LASV entry inh: 5%[46.1 µM]

What do the screens show for `CCOCCCNC(=O)c1oc2ccc(S(=O)(=O)N3CCOCC3)cc2c1C`?
RE007 growth inh: inconclusive; NS1 function inh: 3%; SARS PLpro yeast: 3%; StopGo reporter: -18%; Marburg entry inh: -14%[46.1 µM]

Results for CCOc1ccc(N(CC(=O)N2CC=C(c3ccccc3)CC2)S(=O)(=O)c2c(C)noc2C)cc1 ?
RE007 growth inh: -1%; Cruzain inh noDet: 2%; Cruzain inh Det: -1.8%; NS1 function inh: -30%; SARS PLpro yeast: -5%; StopGo reporter: -32%

What do the screens show for `CC(Oc1ccccc1Cl)c1nnc(N)s1` (centres undefined)?
RE007 growth inh: -2%; Cruzain inh noDet: -9%; Cruzain inh Det: 1.3%; NS1 function inh: 0%; SARS PLpro yeast: -1%; StopGo reporter: 9%; Marburg entry inh: inconclusive; LASV entry inh: -4%

How did C=CCN1C(=O)c2ccccc2NC1c1ccc(Br)s1 (centres undefined) do in these assays?
RE007 growth inh: 8%; NS1 function inh: -3%; SARS PLpro yeast: 1%; StopGo reporter: -9%; Marburg entry inh: -4%[46.1 µM]; LASV entry inh: 21%[46.1 µM]

Results for C#CCOc1c(Br)cc(/C=C2/C(=O)ON=C2C)cc1OCC ?
RE007 growth inh: -13%; NS1 function inh: 4%; SARS PLpro yeast: -5%; StopGo reporter: inconclusive

What do the screens show for `C/C(=N\NC(=O)c1nc2ccccn2c1C)c1ccco1`?
RE007 growth inh: 6%; NS1 function inh: 2%; SARS PLpro yeast: -8%; StopGo reporter: 42%[activator]; Marburg entry inh: -8%[46.1 µM]; LASV entry inh: 4%

Results for CCOC(=O)C1=C(C)N(CCCC(=O)O)C(=O)NC1c1ccc(Cl)cc1Cl (centres undefined) ?
RE007 growth inh: 3%; NS1 function inh: 6%; SARS PLpro yeast: -2%; StopGo reporter: -22%

How did Cc1cc(C)cc(OCC(=O)Nc2ccc(S(=O)(=O)Nc3onc(C)c3C)cc2)c1 do in these assays?
Cruzain inh noDet: 12%; Cruzain inh Det: -5.7%; StopGo reporter: -6%; LASV entry inh: inconclusive

How did CC(C)(C)c1ccc(/C=C2\SC(=O)N(CCNC(=O)c3cccc(S(=O)(=O)N4CCOCC4)c3)C2=O)cc1 do in these assays?
RE007 growth inh: 3%; Cruzain inh noDet: inconclusive; Cruzain inh Det: -3.8%; NS1 function inh: 4%; SARS PLpro yeast: -16%; StopGo reporter: inconclusive; Marburg entry inh: inconclusive; LASV entry inh: inconclusive

What do the screens show for `CCCCCCCCn1c2c(c(=N)c3ccccc31)CCC2`?
RE007 growth inh: inconclusive; NS1 function inh: 7%; SARS PLpro yeast: 0%; StopGo reporter: 2.5µM*; Marburg entry inh: inconclusive; LASV entry inh: inconclusive

What do the screens show for `Cc1nn(C(=O)CCC(=O)NCc2ccccc2Cl)c2ccccc12`?
RE007 growth inh: 10%; NS1 function inh: -11%; SARS PLpro yeast: -3%; StopGo reporter: -21%

How did COC(=O)N/N=C(\C)c1ccc(C)c([N+](=O)[O-])c1 do in these assays?
RE007 growth inh: -4%; Cruzain inh noDet: 0%; Cruzain inh Det: -4.3%; NS1 function inh: 4%; SARS PLpro yeast: -10%; StopGo reporter: 22%; Marburg entry inh: 19%; LASV entry inh: inconclusive

How did COc1ccccc1NC(=O)CN(Cc1ccco1)C(=O)c1cncc(Br)c1 do in these assays?
RE007 growth inh: -10%; NS1 function inh: -1%; SARS PLpro yeast: -2%; StopGo reporter: -7%

What do the screens show for `CCCCCCOc1ccc(N2C(=O)CC(N3CCN(C(=O)c4ccco4)CC3)C2=O)cc1` (centres undefined)?
RE007 growth inh: -2%; Cruzain inh noDet: inconclusive; Cruzain inh Det: -0.9%; NS1 function inh: 22%; SARS PLpro yeast: -11%; StopGo reporter: -2%; Marburg entry inh: 12%; LASV entry inh: -3%

What do the screens show for `Cc1ccc(S(=O)(=O)NCCN(CCNS(=O)(=O)c2ccc(C)cc2)S(C)(=O)=O)cc1`?
RE007 growth inh: 3%; Cruzain inh noDet: inconclusive; Cruzain inh Det: -2.4%; NS1 function inh: -13%; SARS PLpro yeast: -18%; StopGo reporter: 38%[activator]; Marburg entry inh: 3%&3%; LASV entry inh: -3%

What do the screens show for `COc1ccc(S(=O)(=O)N2CCCCC2)cc1N(C)S(=O)(=O)c1ccccc1`?
RE007 growth inh: 4%; NS1 function inh: -2%; SARS PLpro yeast: -2%; StopGo reporter: -1%; Marburg entry inh: inconclusive; LASV entry inh: 4%

Results for C[C@H](N=C1NS(=O)(=O)c2ccccc21)C(=O)OCc1cc([N+](=O)[O-])cc2c1OCOC2 ?
RE007 growth inh: -7%; NS1 function inh: 6%; SARS PLpro yeast: 1%; StopGo reporter: 9%; Marburg entry inh: -8%[46.1 µM]; LASV entry inh: -8%

What do the screens show for `COc1cccc(NC(=O)CCN2C(=O)C3CC=CCC3C2=O)c1` (centres undefined)?
RE007 growth inh: -3%; NS1 function inh: -3%; SARS PLpro yeast: 4%; StopGo reporter: 34%[activator]

How did O=C(Nc1ccc(OC(F)(F)F)cc1)C1CCN(S(=O)(=O)c2cccs2)CC1 do in these assays?
Cruzain inh noDet: 8%; Cruzain inh Det: -11%; StopGo reporter: inconclusive; Marburg entry inh: -14%[46.1 µM]; LASV entry inh: -23%[46.1 µM]

How did Cc1nnc(NC(=O)CCC(=O)N2CCN(S(=O)(=O)c3cc([N+](=O)[O-])ccc3C)CC2)s1 do in these assays?
RE007 growth inh: 22%; StopGo reporter: 0%; Marburg entry inh: -19%; LASV entry inh: -2%

What do the screens show for `C=CCOc1cccc(/C=N/NC(=O)CN(c2cc(Cl)ccc2OC)S(=O)(=O)c2ccc(C)c([N+](=O)[O-])c2)c1`?
RE007 growth inh: -6%; Cruzain inh noDet: inconclusive; Cruzain inh Det: -0.6%; NS1 function inh: 27%; SARS PLpro yeast: -10%; StopGo reporter: -19%; Marburg entry inh: -1%; LASV entry inh: inconclusive

Random draw from the library, and some 4.5% of all compounds hit somewhere here.
